NPYLR7 ag – agonists of mosquito NPYLR7 receptor, primary screen, cell-based, Aedes aegypti, calcium fluorescence, mosquito biting behavior | activation, % at 10 µM | 270,000 tested, 0.15% active | AID 1259423, 2018 | HEK293T NPYLR7/Galpha15, GCaMP6s calcium fluorescence | Aedes aegypti neuropeptide Y-like receptor 7 (NPYLR7); in the data active means activation above about 40%;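 further: 0% = vehicle and 100% = reference agonist at the receptor; some compounds past the cut are filed as inactive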
NPYLR7 ag max-min – further read-out of NPYLR7 ag, marked with its call; activation, %; measured here: Max-Min RFU normalised activation; some inactives read as strong as hits;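 span of the calcium signal over five minutes; 0% = vehicle and 100% = native peptide agonist; compound fluorescence can raise it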
* hit, by the source's call; & = joins results of further samples. Only part of the results is shown; count on the stated rates, not on these rows.

SMILES | NPYLR7 ag | NPYLR7 ag max-min
CCC1NC(=O)c2cc(S(N)(=O)=O)c(Cl)cc2N1 (stereo not given) | 5 | 6
Cc1cc(Cl)c(Cl)cc1S(=O)(=O)NC1CC(C)(C)NC(C)(C)C1 | 1 | 0
COc1ccc(Cn2ccnc2CN(C(=O)C(C)C)C(C)C)cc1 | 6 | 12
CC(C)(C)CC(C)(C)c1ccc(OCC(=O)NNC(=O)c2ccccc2)cc1 | -2 | -8
O=C1CCC([N+](=O)[O-])C(c2cccc(Br)c2)N1 (stereo not given) | -1 | 11
O=C(Oc1ccccc1-c1nc2ccccn2c1NC1CCCCC1)C(c1ccccc1)c1ccccc1 | -10 | -2
CCOCCn1c(=O)c2c(nc3n(Cc4ccccc4)c(C)c(C)n23)n(C)c1=O | 12 | 2
COc1ccc(OC)c2sc(N(CCN(C)C)C(=O)/C=C/c3cccs3)nc12 | 2 | -4
CCc1ccccc1N=C1S/C(=C/c2ccc(O)c(O)c2)C(O)=C1C(=O)OC | 8 | 16
CCOc1ncccc1CN1CCC(C(=O)Nc2cccc(-c3ccnc(C)n3)c2)CC1 | 23 | 7
Cc1cccnc1C(NC(=O)C1CCN(Cc2ccc(Oc3ccccc3)cc2)CC1)c1ccc(Cl)cc1 (stereo not given) | 15 | 4
CC1=C([N+](=O)[O-])C(c2ccc(O)cc2)N(C)C(=O)N1C (stereo not given) | -2 | -4
O=C(COc1cc(=O)n2ccccc2n1)Nc1ccccc1 | 4 | 8
COc1ccc(C(=O)N2CCN(c3nc(C)nc(C)c3Cc3cccc(C(F)(F)F)c3)CC2)c(OC)c1 | -3 | -3
CC(=O)Nc1cccc(C(=O)N2CCCC(CCC(=O)NCc3ccccc3Cl)C2)c1 (stereo not given) | -6 | -8
Cc1ncc2c(c1CNC(=O)c1ccccc1F)CCN(C(=O)/C=C/c1ccc(F)c(F)c1)C2 | -4 | -11
COc1ccc2c(c1)SC(C)C(=O)N2Cc1ccc(F)cc1 (stereo not given) | 6 | 2
O=C(Cn1ncn2nc(-c3ccc(F)cc3)cc2c1=O)NCc1ccco1 | -10 | -17
CC(=O)N1CCN(C(=O)c2ccc3nc(C)c(N(C)CC4CCCCC4)n3c2)CC1 | -3 | -8
Cc1sc2nc(C(C)Sc3nnc(Cc4cccs4)n3C3CC3)[nH]c(=O)c2c1C (stereo not given) | 7 | 10
O=c1cc(NCc2ccc(-c3ccc(Cl)cc3)o2)nc2ccccn12 | 12 | 5
O=C(CCc1ccc(F)cc1)N1CCN(S(=O)(=O)c2cc(Cl)ccc2Cl)CC1 | 5 | 3
Oc1ccc(-c2nc(-c3ccc(F)cc3)c(-c3ccncc3)[nH]2)cc1 | -5&3 | -12&-6
CC1CCN(Cc2nnnn2CCCC(=O)N2CCC(c3ccncc3)CC2)CC1 | 3 | 0
COc1ccc([N+](=O)[O-])cc1CN1CCCn2cccc2C1c1ccc(F)cc1 (stereo not given) | 1 | 11
O=C(CN1CCc2[nH]nc(-c3ccc(Cl)cc3)c2C1)NCc1ccccn1 | 18 | 2
COc1cc(CN2CC34C=CC(O3)C(C(=O)NC3CCS(=O)(=O)C3)C4C2=O)cc(OC)c1OC (stereo not given) | -1 | 8
Cc1ccc(C2CC(c3cccc(F)c3)=NN2C(=O)CN2CCC3(CC2)OCCO3)cc1 (stereo not given) | 3 | 7
CN(C)c1ccc(NC2=NC3(CCCCC3)N=C(N)N2)cc1 | 3 | 3
COCCCN(Cc1c(-c2ccccc2)noc1N(C)C1CCCCC1)C(=O)c1ccco1 | 11 | 15
COCCN(CC(=O)N(CCc1ccccc1)Cc1ccc(C)o1)Cc1cccc(C(=O)OC)c1 | 1 | 10
CC(C)CCNC(=O)c1cc(-c2ccccc2Cl)nn1-c1ccc(Cl)cc1 | -3 | 6
Cc1noc(C)c1CN(C)Cc1ccc(OCC(F)(F)F)cc1 | 0 | 1
CN(C)c1ncccc1NC(=O)CN(C)S(=O)(=O)c1ccc(Br)cc1 | -2 | -5
CC(=O)N1CCN(C(=O)c2ccc(CSc3nc(-c4ccccc4)cc(N4CCN(c5ccccc5Cl)CC4)n3)o2)CC1 | 9 | 4
O=C1OC(/C=C/c2ccc(Cl)cc2)=NC/1=C/c1ccc(F)cc1 | 1 | 0
CSc1nc2c(c(=O)[nH]1)C(c1ccc(Cl)cc1)C(C#N)C(N)=N2 (stereo not given) | 1 | -1
COc1ccc2[nH]c3c(c2c1)CCN(C(=O)c1ccccn1)C3c1ccc(COC(C)=O)o1 (stereo not given) | 11 | -1
CC1(C(=O)Nc2ccc(Cl)c(Cl)c2)CCN1Cc1ccccc1OC(F)F (stereo not given) | 10 | 2
O=C1OC(c2ccccc2I)=NC1=Cc1ccc2c(c1)OCCO2 | -8 | -9
O=C(CCC1CCN(C(=O)C2CC=CCC2)CC1)N1CCC(Cc2ccccc2)CC1 (stereo not given) | 5 | 5
CC1(C)OCC(CNC(=O)CNC(=O)C2CC2(c2ccccc2)c2ccccc2)O1 (stereo not given) | -7 | -13
Cc1ccc(C2=[N+]([O-])C3(CCCCC/C3=N/NC(N)=S)N(O)C2(C)C)o1 (stereo not given) | -11 | -19
O=C(O)[C@H]1C[C@@H](O)CCN1Cc1ccc2c(c1)OCCO2 | -4 | -12
COc1ccc(NC(=O)C2(C)CCN2C2Cc3ccccc3C2)cc1OC (stereo not given) | -1 | -3
CCOC(=O)Cc1csc(NC(=O)Cn2nc(C)c([N+](=O)[O-])c2C)n1 | 2 | 2
CCOC(=O)c1[nH]c(C)c(C(=O)CN(C2CC2)S(=O)(=O)c2ccc(NC(C)=O)cc2)c1C | 10 | 14
CCOC(=O)c1cccnc1NCC(O)c1ccccc1OC (stereo not given) | 2 | 1

Arranged by count of non-hydrogen atoms (descending): 13 of the compounds above
SMILES | NPYLR7 ag | NPYLR7 ag max-min
CC(=O)N1CCN(C(=O)c2ccc(CSc3nc(-c4ccccc4)cc(N4CCN(c5ccccc5Cl)CC4)n3)o2)CC1 | 9 | 4
COCCN(CC(=O)N(CCc1ccccc1)Cc1ccc(C)o1)Cc1cccc(C(=O)OC)c1 | 1 | 10
COc1ccc2[nH]c3c(c2c1)CCN(C(=O)c1ccccn1)C3c1ccc(COC(C)=O)o1 (stereo not given) | 11 | -1
CCOC(=O)c1[nH]c(C)c(C(=O)CN(C2CC2)S(=O)(=O)c2ccc(NC(C)=O)cc2)c1C | 10 | 14
O=C(CCC1CCN(C(=O)C2CC=CCC2)CC1)N1CCC(Cc2ccccc2)CC1 (stereo not given) | 5 | 5
CC1(C)OCC(CNC(=O)CNC(=O)C2CC2(c2ccccc2)c2ccccc2)O1 (stereo not given) | -7 | -13
CC(C)CCNC(=O)c1cc(-c2ccccc2Cl)nn1-c1ccc(Cl)cc1 | -3 | 6
Cc1ccc(C2=[N+]([O-])C3(CCCCC/C3=N/NC(N)=S)N(O)C2(C)C)o1 (stereo not given) | -11 | -19
CN(C)c1ncccc1NC(=O)CN(C)S(=O)(=O)c1ccc(Br)cc1 | -2 | -5
O=C1OC(c2ccccc2I)=NC1=Cc1ccc2c(c1)OCCO2 | -8 | -9
Cc1noc(C)c1CN(C)Cc1ccc(OCC(F)(F)F)cc1 | 0 | 1
CN(C)c1ccc(NC2=NC3(CCCCC3)N=C(N)N2)cc1 | 3 | 3
O=C(O)[C@H]1C[C@@H](O)CCN1Cc1ccc2c(c1)OCCO2 | -4 | -12

Next section.
SMILES | NPYLR7 ag | NPYLR7 ag max-min
O=C(OCc1cc(-c2cc3ccccc3o2)on1)c1c(F)cccc1F | -2 | -5
CN1CCN(C(=O)NC2CC(=O)N(c3ccc4c(c3)OCCO4)C2)CC1 (stereo not given) | 4 | 1
O=C(CS(=O)(=O)Cc1coc(-c2ccc(F)cc2)n1)Nc1ccccc1 | -1 | -1
COc1c(Cl)cc(Cl)cc1CNc1ccc2n[nH]nc2c1 | -3 | -4
O=c1c(Oc2ccc(F)cc2)coc2cc(O)ccc12 | 4 | 9
Clc1ccc(-c2nc(CN3CCN(Cc4ccc5c(c4)OCO5)CC3)cs2)cc1 | 0 | -4
COc1cc2c(cc1OC)C(c1ccccc1)N(C(=O)c1cccc3cc[nH]c13)CC2 (stereo not given) | 4 | 12
C=CCOc1c(OC)ccc2c1CN(CC)C(=O)CCN2CC(C)(C)O | 3 | 5
CCNC(=O)N1CCC2(CC1)[C@H](C(=O)OCC)[C@@H](OC)C(=O)N2C | 14 | 12
O=C(NCc1ccccc1Cn1cccn1)c1cnn2c1CCCC2 | 3 | 3
COc1ccccc1N1CCN(C(=O)c2cc(-c3ccc(F)cc3)nn2-c2ccccc2)CC1 | -3 | 0
COc1cccc(-c2ccc(NC(=O)C3CCCN(Cc4nccs4)C3)cc2)c1 (stereo not given) | 3&12 | 0&3
Clc1ccc(-c2noc(CN3CCN(c4ncnc5ccccc45)CC3)n2)cc1 | 0 | -6
COc1ccccc1CN1C(=O)CON=C1Cc1ccccc1 | 4 | 1
C=CCNC(=O)C(NC(=O)c1cccs1)C1CCN(C(=O)COC)CC1 (stereo not given) | -5 | -5
CC(C)(C)c1ccc(COc2coc(CN3CCCN(S(=O)(=O)c4ccc5c(Cl)cccc5c4)CC3)cc2=O)cc1 | 23 | 24
OC(COCc1ccccc1)CN(Cc1cccc(Cl)c1)CC1CC(c2ccccc2Cl)=NO1 (stereo not given) | -2 | 4
Cc1cccc(C2c3[nH]c4ccccc4c3CCN2C(=O)CCc2c(C)nn(C)c2C)n1 (stereo not given) | 0 | -4
CCc1nc2ccc(C(=O)Nc3cccc(NS(C)(=O)=O)c3)cn2c1N(C)C(=O)Cc1ccccc1 | -6 | -12
O=C(Nc1ccc(-c2cccc(-c3ccc4c(c3)OCCO4)n2)cc1)C(Cl)(Cl)Cl | -2 | -1
O=C(c1ccccc1Cl)N1CCCC(N2CCN(c3cccc(C(F)(F)F)c3)CC2)C1 (stereo not given) | 21 | 30
CCCc1[nH]ncc1C(=O)N1CCC2(CCCO2)CC1 | 9 | 8
Cc1nnnn1CCCN1CCCC1c1ccccn1 (stereo not given) | 0 | 1
CCn1c(SCCO)nnc1-c1ccc(C(C)(C)C)cc1 | 8 | 5
O=C1C(=O)c2ccccc2C(O)=C1C1CCC(c2ccc(Cl)cc2)CC1 (stereo not given) | -11&-6 | -18&-12
CC(C)c1nnc(CN(C)C2CCCc3ccccc32)o1 (stereo not given) | -2 | -3
CS(=O)(=O)c1nc([N+](=O)[O-])nn1Cc1ccccc1 | -1 | -2
c1ccc2oc(-c3nccn3CC(c3ccncc3)N3CCOCC3)cc2c1 (stereo not given) | 5 | 0
COCC(=O)Nc1ccc(-c2c(-c3cccc(N(C)C)c3)nn(-c3ccc(C)cc3)c2OC(C)=O)cc1 | 2 | 6
COCCn1c(SCC(=O)OC)nc2ccccc2c1=O | 6 | 3
CCC(C)(C)C(=O)N1CCN(c2ncccc2NC(=O)c2ccc3c(c2)OCO3)CC1 | 18 | 11
COc1ccc(-c2nc3nc(-c4cc(OC)c(OC)c(OC)c4)cc(C(=O)O)c3[nH]2)cc1 | -2 | -2
Cc1ccc(CSC2=NCCN2S(=O)(=O)c2ccc([N+](=O)[O-])cc2)cc1 | 10 | 9
C/C=C/C(=O)N1CSCC1C(=O)N(Cc1cccnc1)C(C)C (stereo not given) | 1 | -1
O=C(NCc1ccccc1)c1cc(NC(=O)C(Cl)c2ccccc2)ccc1N1CCCC1 (stereo not given) | 9 | 12
Cc1c(C(=O)N=Nc2c(O)[nH]c3ccccc23)nnn1-c1nonc1N | -2 | 0
Cc1cc(C)n(-c2ccc(F)cc2CN2C[C@H](N)C[C@H]2C(=O)NC(C)C)n1 | 7 | -1
C[C@H](NC(=O)Nc1ccc(NS(=O)(=O)c2ccc(F)c(Cl)c2)cc1)c1ccccc1 | 10 | 7
CN1CCN(C(=O)Cn2nnnc2CN2CCCC2)CC1c1ccccc1 (stereo not given) | -2 | -3
CCCc1nc(NC(C(=O)N(C)C)c2ccccc2)c2cnn(C)c2n1 (stereo not given) | 14 | 7
CCC(C)NC(=O)c1cc(NC(=O)Nc2c(C)cccc2C)ccc1N1CCCC1 (stereo not given) | 3&-8 | 1&-2
COCc1cc(C)nc(OCC(=O)N/N=C\c2ccc(OC)c(Br)c2)c1C#N | 7 | 8
Cc1c(Cl)c(C(F)(F)F)nn1CC(=O)NCc1ccc(Cl)cc1 | -8 | -7
CCCn1nc(C(=O)Nc2ccc(Oc3ccc(C)c(C)c3)nc2)ccc1=O | 7 | 1
CC(C#N)CN(C)C(=O)c1ccc(Cl)c(S(C)(=O)=O)c1 (stereo not given) | 3 | 2
C/C(CC(C)C)=N/Nc1nc2c(c(=O)n(C)c(=O)n2C)n1CCCc1ccccc1 | -5 | -6
CCc1ccc(OC)c(S(=O)(=O)Nc2ccc(F)cc2)c1 | -7 | -10
C=CCN(CC(=O)N(CCc1ccc(OC)c(OC)c1)Cc1cccs1)C(=O)Nc1ccc(F)c(Cl)c1 | 0 | 4
COCCc1nc2ccc(C(=O)N3CCCCC3CCc3cccc(O)c3)cc2o1 (stereo not given) | -2 | -10

Looked up by structure from the entries so far, two records:
SMILES | NPYLR7 ag | NPYLR7 ag max-min
COCCc1nc2ccc(C(=O)N3CCCCC3CCc3cccc(O)c3)cc2o1 (stereo not given) | -2 | -10
C=CCN(CC(=O)N(CCc1ccc(OC)c(OC)c1)Cc1cccs1)C(=O)Nc1ccc(F)c(Cl)c1 | 0 | 4

Screening results from PubChem BioAssay.
